# OX1R antagonist = human HCRTR1 antagonism. O43613. CHO/OX1R cells, Fluo-8 calcium fluorescence, orexin A. inhibition, % at 5 µM. hit rate 0.43% among 330,000;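 active = inhibition above its plate's threshold, mean inhibition of all tested compounds on the plate plus 3 SD, cut at about 37% in these data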;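 note: 0% = orexin A challenge wells and 100% = SB-334867-A antagonist wells; not every result past the cut was called active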
# Target sequence (O43613 whole entry, looked up): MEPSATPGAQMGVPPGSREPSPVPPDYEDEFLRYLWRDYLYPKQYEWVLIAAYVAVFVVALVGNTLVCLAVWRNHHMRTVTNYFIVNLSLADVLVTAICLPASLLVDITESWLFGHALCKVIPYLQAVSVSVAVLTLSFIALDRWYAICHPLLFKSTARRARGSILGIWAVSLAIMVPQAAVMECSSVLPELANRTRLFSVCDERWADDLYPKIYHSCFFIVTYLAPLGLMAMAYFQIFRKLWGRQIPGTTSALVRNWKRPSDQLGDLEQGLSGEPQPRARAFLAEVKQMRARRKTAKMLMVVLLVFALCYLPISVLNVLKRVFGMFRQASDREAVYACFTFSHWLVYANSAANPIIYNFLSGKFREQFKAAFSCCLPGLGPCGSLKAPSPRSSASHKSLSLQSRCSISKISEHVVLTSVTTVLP
# * marks the source's active call; other numbers are inactive results; & = joins results of further samples.
SMILES	OX1R antagonist
O=C(CN1CCCCC1)c1ccc(OC(F)F)cc1	2
N#CC12CNCC1CN=N2 (stereo unspecified)	-9
CC(=O)OC1N=C(c2ccc(Cl)cc2)c2cc(Br)ccc2NC1=O (stereo unspecified)	-3
CCOC(=O)c1c(-n2c(C)cc(/C=C3\C(=O)NC(=O)N(C)C3=O)c2C)sc2c1CCCC2	5
CC(C)n1c(=O)c(C=Nc2ccc(S(N)(=O)=O)cc2)c(O)n(Cc2ccco2)c1=O	-15
COc1cc(CN2CCN(c3cc(C)ccc3C)CC2)ccc1O	-13
N=c1ccccn1Cc1ccccc1	-4
CN1C(=O)C(=Cc2ccc(OCC(=O)Nc3ccccc3)cc2)C(=O)N(C)C1=O	-15
O=C(COc1ccc(Cl)cc1)NC1CN2CCC1CC2 (stereo unspecified)	-20
CN(C)C(=O)Oc1ccc(Br)cc1C(=O)Nc1ccc(F)c(Cl)c1	-11
CN(C)CCN=Cc1c(O)n(CCC2=CCCCC2)c(=O)[nH]c1=O	-1
COc1ccc(NC(=O)c2cn(CCC#N)nc2-c2ccccc2)cc1	-13
CN=C1CN(O)C(c2ccccc2)=c2cc(Cl)ccc2=N1	5
CCCC[N+]12C3C[C@H](C4[C@H](O)[C@]5(C[C@@H]41)c1ccccc1N(C)[C@@H]35)[C@H](CC)[C@H]2O (stereo partly specified)	-21
COc1ccc(CNC(=O)C(NC(C)=O)C(C)C)cc1OC (stereo unspecified)	0
Cc1ccc(CN2C(=O)NC(=O)C3(Cc4c(nc5ccccn5c4=O)N4CCCCCC43)C2=O)cc1 (stereo unspecified)	-26
C[C@]12CC[C@H](O)C[C@H]1CC[C@@H]1[C@@H]2C[C@@H](O)[C@]2(C)[C@@H](C3=CC(=O)OC3)CC[C@]12O	2
CC(C)CCOP(N)(=O)Oc1ccccc1 (stereo unspecified)	-11
COc1ccccc1NC1(C#N)CCCCC1	13
O=C(CCCN1CCC(n2c(=O)[nH]c3ccccc32)CC1)c1ccc(F)cc1	-24
Cc1ccc2c(c1)=C/C(=C\c1c(O)[nH]c(=S)[nH]c1=O)C(=O)N=2	-10
O=C1NC(=O)N(CCC2=CCCCC2)C(=O)/C1=C/c1ccc(O)cc1	-17
CN(C)P(=O)(NC(=O)c1cccn1C)N(C)C	-17
CC(=O)NC(Cc1ccc(N(CCCl)CCCl)cc1)C(=O)NCC(=O)NCC(=O)O (stereo unspecified)	-16
CCc1c(C(=O)NN2C(=O)C3C4CCC(O4)C3C2=O)csc1C (stereo unspecified)	1
c1ccc(-n2ccnc2)cc1	3
Cc1ccc(-c2nn(Cc3ccccc3)cc2C=O)cc1	-16
CCOP(=O)(OCC)c1cccc(O)c1	-12
O=C(COc1ccccc1)Nc1ccc(Cl)cc1C(=O)c1ccccc1	-36
Nc1c(C(=O)NCCN2CCOCC2)c2nc3ccccc3nc2n1Cc1ccco1	-16
O=C(c1ccc(CNS(=O)(=O)c2ccc(Br)cc2)cc1)N1CCC2(CC1)OCCO2	-21
Cc1ccc(C)c(NC(=O)CCNC(=O)N2C[C@H]3C[C@@H](C2)c2cccc(=O)n2C3)c1	-10
COC(=O)C1=C(c2ccccc2)C[C@@H]2CC[C@H]1N2C(=O)NCc1ccc(F)cc1	-18
C=CCn1c(O)c(/C=N/N2CCCCC2c2cccnc2)c(=O)[nH]c1=S (stereo unspecified)	-23
CC(NC(C)(C)C)C(=O)c1cccc(Cl)c1 (stereo unspecified)	-5&-4
Cc1ccccc1NC1=NCCCS1	-13
Cc1cccn2c(=O)c3cc(C(=O)N4CCC5(CC4)OCCO5)n(C)c3nc12	-11
CCC(=NCCCn1ccnc1)c1c(O)n(-c2ccc(OC)cc2)c(=O)[nH]c1=O	1
Cc1ccc(NC(=O)CCNC(=O)N2C[C@H]3C[C@@H](C2)c2cccc(=O)n2C3)c(C)c1	19
O=c1[nH]c(=O)n(-c2ccc(F)cc2)c(O)c1/C=C1\C=Nc2ccccc21	0
CN1C(=O)/C(=C/c2ccc(Cl)s2)C(=O)NC1=S	1
Cc1ccsc1C(=O)C1CCCN(Cc2ccccc2O)C1 (stereo unspecified)	-8
O=C(CCCC1=NS(=O)(=O)c2ccccc2N1)N1CCC2(CC1)OCCO2	-8
CCOC(=O)C(O)(c1ccc(N(CC)S(=O)(=O)c2ccccc2)cc1)C(F)(F)F (stereo unspecified)	-1
C#C[C@]1(O)CC[C@H]2[C@@H]3CCC4=Cc5nc6nc7ccccc7n6cc5C[C@]4(C)[C@H]3CC[C@@]21C	-33
C=CCc1cc(OC)c2c(c1)OCO2	-14
CCCCn1c(O)c(C(CC)=NCCCN(C)C)c(=O)[nH]c1=O	-2
COC(=O)C1C2c3ccccc3OC1(C)N=c1s/c(=C/c3cnn(C)c3)c(=O)n12 (stereo unspecified)	-19
COc1ccc(CCn2c(O)c(C=Nc3ccc(F)cc3)c(=O)[nH]c2=O)cc1OC	2
COCCNC(=O)Cn1cc(C(=O)c2ccccc2F)c2ccccc21	-11
O=C(CNC(=O)OCc1ccccc1)Nc1ccc(Br)cc1C(=O)c1ccccc1	4
O=c1[nH]c(=O)n(Cc2ccco2)c(O)c1C=NC1CCN(Cc2ccccc2)CC1	-13
CCn1c(C)cc(/C=C2\C(=O)NC(=O)N(c3ccccc3C)C2=O)c1C	-7
N#CCCn1cc(C(=O)Nc2ccc([N+](=O)[O-])cc2)c(-c2ccccc2)n1	-16
COc1ccc(OC)c(CC(=O)O)c1	-3
COc1ccccc1CCNC1CCC(C(C)(C)C)CC1 (stereo unspecified)	-29
Cc1nc2ccc(Cl)cn2c1P(=S)(N1CCOCC1)N1CCOCC1	-26
CN(Cc1ccccc1)C1CCCN(C(=O)COc2ccccc2Cl)C1 (stereo unspecified)	-35
C[C@]12CC[C@@H](O)C[C@@H]1CC[C@@H]1[C@@H]2CC[C@]2(C)[C@@H](O)CC[C@@H]12	2
CCCCCCCCCCCCn1ccc(=N)cc1	36

# Look-ups from the entries so far.
# `CN(Cc1ccccc1)C1CCCN(C(=O)COc2ccccc2Cl)C1` (stereo unspecified) | OX1R antagonist: -35
# `Cc1nc2ccc(Cl)cn2c1P(=S)(N1CCOCC1)N1CCOCC1` | OX1R antagonist: -26

# Remaining list, next part
SMILES	OX1R antagonist
O=C(NCc1ccccc1)c1cccn(Cc2ccccc2)c1=O	-14
CC(=O)Nc1cc(C(=O)N2CCC3(CC2)OCCO3)ccc1Sc1ccc(C)cc1	-15
COc1cc2c(cc1O)C[C@H]1c3c(cc(O)c(OC)c3-2)CCN1C	-7
O=C(c1sc2ccccc2c1Cl)N1CCC2(CC1)OCCO2	-10
CCNC(=O)NNC(=O)C1CC(c2cccnc2)=NO1 (stereo unspecified)	-2
O=C1CSC2N1CCNC21CCCCC1 (stereo unspecified)	-10
O=C1NC(=O)N(c2ccccc2F)C(=O)/C1=C/c1ccc(Oc2ccc([N+](=O)[O-])cn2)cc1	-1
CCOC(=O)c1c(/N=C/c2c(O)n(-c3ccccc3F)c(=S)[nH]c2=O)sc2c1CCCC2	-6
Cc1ccc(Cn2cc(C=O)c(-c3ccc(F)cc3)n2)cc1	-12
C#C[C@@]1(O)CCC2C3CCC4=C/C(=N/OCC(=O)NC(CCC(N)=O)C(=O)O)CC[C@]4(C)C3CC[C@@]21C (stereo partly specified)	-21
CCOC(=O)C(=O)NC1CCSC1=O (stereo unspecified)	-2
c1cc2c(cc1CCNC1CCCCCC1)OCO2	-25
Clc1ccccc1CN1CCNCC1	-2
C[n+]1ccc(-c2ccncc2)cc1	3
O=C1OC(c2ccc(Br)cc2)=N/C1=C\N1CC2CC(C1)c1cccc(=O)n1C2 (stereo unspecified)	-12
COc1cccc(CNCCc2ccc(F)cc2)c1	-15
CN1C(=O)C(C2(C#N)CCCCC2)C(=O)N(C)C1=O	1
CC(C)C/C(=N/O)c1cn(C)c2ccccc12	-17
Cc1[nH]c2ccccc2c1C1=CCNCC1	12
CC(Cl)(Cl)/C(=N/P(=S)(N1CCOCC1)N1CCOCC1)N1CCOCC1	-10
CCN1C[C@]2(COC(=O)c3ccccc3N)CC[C@H](OC)C34[C@@H]5C[C@H]6[C@H](OC)[C@@H]5[C@](O)(C[C@@H]6OC)[C@@](O)([C@H]13)[C@@H](OC)[C@@H]42	-15
CN(Cc1ccccc1)Cc1ccccc1OC(=O)N(C)C	-12
CCCCC(=O)N/N=C/c1c(O)n(CC)c(=S)[nH]c1=O	2
Cc1ccc(S(=O)(=O)N(C)C)cc1NC(=O)C(C)[N+]12CCN(CC1)CC2 (stereo unspecified)	-11
Cc1ccc(Cl)cc1N1CCN(CCN)CC1	-24
O=C(NCC(c1cccnc1)N1CCN(c2ccc(F)cc2)CC1)Oc1ccccc1 (stereo unspecified)	-22
O=C1Nc2cc(C(=O)N3CCC4(CC3)OCCO4)ccc2S/C1=C\c1ccccc1	-34

# Among those listed so far, these have fluorine.
SMILES	OX1R antagonist
O=C(CN1CCCCC1)c1ccc(OC(F)F)cc1	2
CN(C)C(=O)Oc1ccc(Br)cc1C(=O)Nc1ccc(F)c(Cl)c1	-11
O=C(CCCN1CCC(n2c(=O)[nH]c3ccccc32)CC1)c1ccc(F)cc1	-24
COC(=O)C1=C(c2ccccc2)C[C@@H]2CC[C@H]1N2C(=O)NCc1ccc(F)cc1	-18
O=c1[nH]c(=O)n(-c2ccc(F)cc2)c(O)c1/C=C1\C=Nc2ccccc21	0
CCOC(=O)C(O)(c1ccc(N(CC)S(=O)(=O)c2ccccc2)cc1)C(F)(F)F (stereo unspecified)	-1
COc1ccc(CCn2c(O)c(C=Nc3ccc(F)cc3)c(=O)[nH]c2=O)cc1OC	2
COCCNC(=O)Cn1cc(C(=O)c2ccccc2F)c2ccccc21	-11
O=C1NC(=O)N(c2ccccc2F)C(=O)/C1=C/c1ccc(Oc2ccc([N+](=O)[O-])cn2)cc1	-1
CCOC(=O)c1c(/N=C/c2c(O)n(-c3ccccc3F)c(=S)[nH]c2=O)sc2c1CCCC2	-6
Cc1ccc(Cn2cc(C=O)c(-c3ccc(F)cc3)n2)cc1	-12
COc1cccc(CNCCc2ccc(F)cc2)c1	-15
O=C(NCC(c1cccnc1)N1CCN(c2ccc(F)cc2)CC1)Oc1ccccc1 (stereo unspecified)	-22

# Screening data from PubChem BioAssay.

# Some of the compounds tested, and most or all hits are left out here.
